HTT prom inh – HTT promoter inhibition. HEK293 HTT promoter firefly luciferase reporter (activity 0% = vehicle and -100% = no light), 24 h. Potency, µM (doses to about 57.5 µM), without a hit: top-dose activity change, negative = inhibition, hits mostly inhibitors. 0.93% of 48,000 active; active = well fitted inhibition curve with a large enough effect; inconclusive = small, poorly fitted or top-dose-only effect; inactive = no such curve, though single readings can be large or run the other way; also: nearly all actives have a fitted effect of over 50% in size
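HEK293 cells carrying firefly luciferase reporters were seeded at 2,500 per well in Opti-MEM and cultured for 24 h. They were then treated with compounds at up to 57.5 uM final for 24 h at 37 degrees C before Dual-Glo luminescence readout.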
PMP22 txn prim – PMP22 gene transcription modulation. S16 Pmp22-F2sN Schwann cells (luciferase reporters placed in the Pmp22 gene), FLuc/NLuc coincidence luminescence, 24 h. Potency, µM (top dose mostly 57.5 µM), inactives show top-dose activity change, negative = inhibition, most hits filed as inhibitors. 2% of 43,000 active; active = clear falling dose curves in both reporters; inconclusive = both reporters move, but less clearly or upward; inactive = either reporter flat; the % is the NLuc reporter signal; also: % is scaled to controls: 0 for no effect and ±100 for the full control effect; some results filed as inactive show a strong effect at the top dose
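S16(c9) Schwann cells with FLuc/NLuc coincidence reporter in the Pmp22 3' UTR; compounds pin-transferred, 24 h at 37C. Dual-luciferase read: FLuc first, then NLuc after Stop&Glo, each 10 min at room temperature.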
An asterisk follows results filed as active; u = inconclusive; x = not tested or not shown; [ ] = remark or other dose. Potency is read from the fitted curve at half-maximal effect.

SMILES | HTT prom inh | PMP22 txn prim
COc1cc2nc(NCCc3ccc(Cl)cc3)n3nc(-c4ccccc4)nc3c2cc1OC | -10% | -19%
O=C(Nc1cc(F)ccc1F)c1cc2nc(-c3ccco3)cc(C(F)(F)Cl)n2n1 | -2% | 0%
CCCCN(CC)CCCNC(=O)Cn1ncc2c3ccccc3n(Cc3ccccc3F)c2c1=O | 31%[activator] | u
Clc1cccc(-n2ncc3c(N4CCCCCC4)ncnc32)c1 | u | 13%
COc1cc2ncc3c(-c4ccc(C)cc4)nn(-c4ccc(F)cc4F)c3c2cc1OC | 10% | u
CCOc1ccc(C(=O)Nc2cccc(OCc3cc(=O)n4ccccc4n3)c2)cc1 | 13% | -12%
O=C(Cn1c(=O)oc2cc(S(=O)(=O)N3CCCCCC3)ccc21)Nc1ccc(F)cc1F | u | -21%
COc1ccccc1N1CCN(c2ncnc3onc(-c4ccc(F)cc4)c23)CC1 | -4% | 8%
CCn1c(NCc2ccc(OC)c(OC)c2)nc2ccccc21 | u | u
Cc1ccccc1CCNC(=O)c1ccc2c(c1)nc1n2CCOC1 | 8% | 7%
CCC1CCCCN1CC(=O)N1CCCc2c1c(=O)oc1ccc(OCc3ccccc3)cc21 (stereo not drawn) | -39% | u
CCCN1CCN(CCCNC(=O)Cn2c(-c3cccs3)cc3ccccc32)CC1 | -26% | u
CCOC(=O)n1ccn(C)c1=S | -3% | x
Cc1ccc(NC(=O)CSc2nc(=O)cc(N)n2CCc2ccccc2)cc1 | 4% | -1%
O=C(O)c1cccc(NC(=O)c2cc3cc(Br)cc(Br)c3oc2=O)c1 | 11% | 1%
CCc1ccccc1NC(=O)Cn1nc(C(F)(F)F)c2c1CCC2 | 10% | -14%
CN(Cc1ccccc1)C(=O)Cn1c(=O)c2cccn2c2ccc(F)cc21 | 17% | -3%
COc1cccc(CNC(=O)c2cc(-c3cccc(OC)c3)n[nH]2)c1 | 48%[activator] | 13%
COc1ccc(-c2nc(SCC(=O)NCCc3ccc(OC)c(OC)c3)n[nH]2)cc1 | 14% | -15%
COc1ccccc1C(=O)Nc1sc(Nc2ccccc2)nc1C(N)=O | 8% | -32%
CCCCOc1ccc(-c2nn(-c3ccccc3)cc2C2NC(=O)NC(C)=C2C(=O)OCC)cc1 (stereo not drawn) | -2% | u
Cc1nc2c(C(=O)NCCc3ccccc3)c[nH]n2c(=O)c1Cc1ccccc1F | -9% | -31%
CCCCN(C)CCCNC(=O)C1CCN(S(=O)(=O)CC)CC1 | -11% | -9%
CCOC(=O)c1ccc(NC(=O)CC2C(=O)N(c3ccc(C)cc3)C(=O)N2C2CCCCC2)cc1 (stereo not drawn) | u | 52%
CCc1ccc(N2C(=O)CC(c3cc(OC)ccc3OC)C3=C2COC3=O)cc1 (stereo not drawn) | -25% | -8%
COc1ccccc1C(=O)n1nc(-c2cccnc2)nc1NCc1ccccc1 | -13% | -132%
Cc1ccc(-c2nc(-c3cc4c([nH]c3=O)CC(C)(C)CC4=O)sc2C)cc1 | -9% | 2%
Clc1ccc(-c2ccc(CNCCSc3nnnn3-c3ccccc3)o2)cc1 | -16% | 6%
CCOC(=O)c1ccc(NC(=O)C(Cc2ccccc2)NS(=O)(=O)c2ccc(Br)s2)cc1 (stereo not drawn) | 4% | -27%
Cc1ccc(N2CC(C(=O)Nc3ccc(Cl)cc3Cl)CC2=O)cc1 (stereo not drawn) | -5% | -38%
COC(=O)c1ccc2c(=O)n(CCCCCC(=O)NCc3ccc(Cl)cc3)c(=O)[nH]c2c1 | -40% | -41%
Cc1ccc(S(=O)(=O)Nc2cc3c(cc2Cl)n(C)c(=O)c(=O)n3C)cc1 | -6% | -10%
CCC(Sc1nc2cc(OC)c(OC)cc2c(=O)n1Cc1ccc(Cl)cc1)C(=O)NCCOC (stereo not drawn) | -3% | u
Cc1cc(C)nc(-n2nc(C)c3c2NC(=O)CC3c2ccccc2OC(C)C)n1 (stereo not drawn) | -30% | u
CCN(C(=O)c1cc2c(=O)oc3ccccc3c2s1)c1ccc(C)c(C)c1 | -13% | -37%
COc1ccc(C(=O)COC(=O)c2cccc(NC(=O)c3ccc(OC)c(OC)c3)c2)cc1 | u | -13%
Nc1c2c(nc3c1CCC3)CCCC2 | -4% | x
Cc1c(C(N)=O)nnn1-c1ccc(Br)cc1 | 14% | -16%
COc1cccc2cc(-c3nc4sc5c(c4c(=O)[nH]3)CCC(C(C)(C)C)C5)c(=O)oc12 (stereo not drawn) | 3% | 2%
COc1cc(NC(=O)Cn2ccc3ccccc3c2=O)cc(OC)c1OC | -25% | -19%
CCC(Oc1ccccc1)C(=O)Nc1cc(-c2cccc(C)c2)nn1-c1ccccc1 (stereo not drawn) | -6% | 12%
O=C(Cc1ccccc1)N(Cc1cccnc1)c1nc2ccc(Cl)cc2s1 | u | u
CCC1CN(C(=O)N2CCC(C(=O)NCCc3cc(OC)ccc3OC)CC2)c2ccccc2O1 (stereo not drawn) | 2% | u
CCOc1ccccc1NC(=O)CCn1cnnn1 | -8% | 6%
COc1ccc2cc3[n+](cc2c1OC)CCc1cc2c(cc1-3)OCO2 | u | x
CNS(=O)(=O)c1cn(CC(=O)Nc2ccc(F)cc2F)cc1S(=O)(=O)NC | -7% | -2%
COc1ccc2oc(-c3ccc(NC(=O)c4ccc(Cl)cc4Cl)cc3)nc2c1 | u | -13%
CC(C)NC(=O)c1ccc(CSc2nc3ccncc3n2Cc2cccc(F)c2)cc1 | -9% | -6%
CCCNC(=O)N1[C@H](c2cccs2)[C@@H](C)C(=O)[C@@H](C)[C@@H]1c1cccs1 | -18% | 2%
COc1ccc(Cl)cc1NC(=O)c1cc2ccc3ccc(C)[nH]c3c2n1 | -2% | -85%
O=c1c2sc3ccccc3c2n(Cc2ccccc2F)c(=O)n1-c1ccccc1Cl | -13% | -8%
CCOc1ccc(NC(=O)C(=O)NCCc2sc(-c3ccc(C)cc3)nc2C)cc1 | -7% | -25%
CCCN(c1ccccc1F)S(=O)(=O)c1cc(-c2cc(C)no2)ccc1C | -29% | u
Oc1c(C(c2ccc(Cl)cc2Cl)N2CCCC2)sc2nc(-c3ccco3)nn12 (stereo not drawn) | 0% | -11%
CCn1cc(C(=O)N(C)Cc2ccccc2)c(=O)c2cc(S(=O)(=O)N3CCCCC3)ccc21 | 67%[activator][11.5 µM] | -1%
O=C(c1ccc(Br)cc1)N(Cc1ccco1)c1ccccn1 | 4% | 1%
CCOc1ccc(-c2c(C)nn3c(C)c(C(=O)NCc4ccc(Cl)cc4)cnc23)cc1OCC | -17% | u
CSc1ccc(CCNC(=O)c2cnn(-c3ccccc3)c2-n2cccc2)cc1 | u | u
Cc1noc(C)c1S(=O)(=O)N(CC(=O)Nc1ccc(F)cc1F)c1ccc(C(C)C)cc1 | u | u
O=C(NCc1cccc(Cl)c1)C1CCN(C(=O)c2sccc2-n2cccc2)CC1 | u | -23%
Additional records follow:
SMILES | HTT prom inh | PMP22 txn prim
COc1ccc(C2CC(=O)Nc3c2c(=O)[nH]c2nc4ccccc4n32)cc1 (stereo not drawn) | -15% | 6%
Cc1cc(SCC(=O)NCc2ccc(Cl)cc2)nc(=O)[nH]1 | -14% | -9%
COc1cc(CN(C(=O)c2ccc(C)cc2)C2CCS(=O)(=O)C2)cc(OC)c1OC (stereo not drawn) | -9% | 29%
CCC(=O)N1CCc2cc(S(=O)(=O)NC(C(=O)NCCc3ccc(Cl)cc3)C(C)C)ccc21 (stereo not drawn) | -1% | -14%
CC(C)(C)OC(=O)N1CCC(c2c(C(=O)NCCN3CCOCC3)cnn2-c2ccc(F)cc2F)CC1 | -2% | -3%
Cc1ccc(CCNC(=O)c2ccc(CS(=O)(=O)c3ccc(Cl)cc3)o2)cc1 | 0% | -6%
O=C(c1ccc(CS(=O)c2ccccc2Cl)o1)N1CCN(c2cccc(C(F)(F)F)c2)CC1 (stereo not drawn) | u | 12µM*
Cc1ccc(-n2nc(C(=O)Nc3ccc(F)cc3F)c3c4ccccc4n(C)c3c2=O)cc1 | -25% | u
CCOC(=O)C1CCN(c2cc3c(cc2NC(=O)c2ccccc2Cl)n(C)c(=O)n3C)CC1 | -21% | 1%
Cc1ccc2c(c1)-c1nc(-c3ccc4c(c3)NC(=O)CO4)cc(-c3ccc(F)cc3)c1CO2 | -13% | u
CC(=O)c1ccc(NC(=O)c2sc(-n3nc(C)c(Cc4ccc5c(c4)OCO5)c3C)nc2C)cc1 | 6% | -100%
O=S(=O)(Nc1cccc(-c2ccc(N3CCCC3)nn2)c1)c1ccc(F)cc1F | 10% | -4%
O=C(CSc1oc(-c2ccccc2)nc1S(=O)(=O)c1ccccc1)c1ccccc1 | -29% | u
Cn1c(=O)n(Cc2c(F)cccc2Cl)c(=O)c2c1nc1n2CCN1c1ccc(F)cc1 | -1% | 3%
COc1cccc(C2C(C(=O)Nc3ccccc3)=C(C)Nc3nc(-c4ccccc4)nn32)c1 (stereo not drawn) | 1% | 7%
COc1ccc(CC(=O)N2CCc3cc(OC)c(OC)cc3C2COc2cc(C)cc(C)c2)cc1OC (stereo not drawn) | -24% | 9%
Cc1cccc(CNC(=O)c2ccc(NC(=O)N3CCSc4ncccc43)cc2)c1 | u | 0%
CCN(CC)S(=O)(=O)c1ccc(NC(=O)c2nn(C)c3c2CSc2ccccc2-3)cc1 | u | -14%
CC(C)c1ccc(C2N=C(N)Nc3nc4ccccc4n32)cc1 (stereo not drawn) | -16% | u
CCCCN(Cc1cc2cc(C)ccc2[nH]c1=O)C(=O)c1cccc(Cl)c1 | -21% | -7%
Cc1ccc(NC(=O)c2c3c(nc4ccccc24)C(=O)N(C2CCCCC2)C3)cc1F | -10% | u
COc1ccccc1N1CCN(C(=O)CCS(=O)(=O)c2cc(Br)cc3c2N(C(=O)C2CC2)CC3)CC1 | -10% | u
CCn1nnc2cc(C(=O)Nc3ccc(C)cc3Br)ccc21 | 29% | 1%
COc1cccc(NC(=O)Cn2cc(C(=O)c3ccc(F)cc3)c(=O)c3cc(OC)ccc32)c1 | -17% | -11%
CCOC(=O)c1c(NC(=O)c2cc(OCC)c(OCC)c(OCC)c2)sc2c1CCCCC2 | -1% | u
COc1ccc(C(=O)NCCn2cc(SCC(=O)Nc3ccc(F)cc3)c3ccccc32)cc1 | u | u
CSc1nc2c(c(=O)[nH]1)C(c1cccc(F)c1F)CC(=O)N2 (stereo not drawn) | -18% | 16%
CCOc1ccc(NC(=O)CN(c2ccc(Cl)cc2C)S(=O)(=O)c2ccccc2)cc1 | u | u
Cc1ccc(-n2ncc(C(=O)NCCN3CCc4ccccc4C3)c2C2CCN(C(=O)OC(C)(C)C)CC2)c(C)c1 | u | u
COc1ccc(CNC(=O)Cn2ccc3cc(S(=O)(=O)N4CCCC4)ccc32)c(OC)c1 | -7% | -33%

Some of the entries so far, in markdown:
| Molecule | HTT prom inh | PMP22 txn prim |
| --- | --- | --- |
| Cc1cccc(CNC(=O)c2ccc(NC(=O)N3CCSc4ncccc43)cc2)c1 | u | 0% |
| CCN(CC)S(=O)(=O)c1ccc(NC(=O)c2nn(C)c3c2CSc2ccccc2-3)cc1 | u | -14% |
| CC(C)c1ccc(C2N=C(N)Nc3nc4ccccc4n32)cc1 (stereo not drawn) | -16% | u |
| CCCCN(Cc1cc2cc(C)ccc2[nH]c1=O)C(=O)c1cccc(Cl)c1 | -21% | -7% |
| Cc1ccc(NC(=O)c2c3c(nc4ccccc24)C(=O)N(C2CCCCC2)C3)cc1F | -10% | u |
| COc1ccccc1N1CCN(C(=O)CCS(=O)(=O)c2cc(Br)cc3c2N(C(=O)C2CC2)CC3)CC1 | -10% | u |
| CCn1nnc2cc(C(=O)Nc3ccc(C)cc3Br)ccc21 | 29% | 1% |
| COc1cccc(NC(=O)Cn2cc(C(=O)c3ccc(F)cc3)c(=O)c3cc(OC)ccc32)c1 | -17% | -11% |
| CCOC(=O)c1c(NC(=O)c2cc(OCC)c(OCC)c(OCC)c2)sc2c1CCCCC2 | -1% | u |
| COc1ccc(C(=O)NCCn2cc(SCC(=O)Nc3ccc(F)cc3)c3ccccc32)cc1 | u | u |
| CSc1nc2c(c(=O)[nH]1)C(c1cccc(F)c1F)CC(=O)N2 (stereo not drawn) | -18% | 16% |
| CCOc1ccc(NC(=O)CN(c2ccc(Cl)cc2C)S(=O)(=O)c2ccccc2)cc1 | u | u |
| Cc1ccc(-n2ncc(C(=O)NCCN3CCc4ccccc4C3)c2C2CCN(C(=O)OC(C)(C)C)CC2)c(C)c1 | u | u |
| COc1ccc(CNC(=O)Cn2ccc3cc(S(=O)(=O)N4CCCC4)ccc32)c(OC)c1 | -7% | -33% |

Carrying on:
SMILES | HTT prom inh | PMP22 txn prim
Cc1ccc(Cn2c(C(=O)Nc3cccc(Cl)c3)cc3sccc32)cc1 | -13% | u
CC1CCCN(CCCNC(=O)Cn2ncc3c([nH]c4ccccc43)c2=O)C1 (stereo not drawn) | -3% | -19%
COc1ccc(-c2nc(CCNC(=O)c3ccccc3)cs2)cc1OC | -16% | -51%
CCc1ccc2oc(C(=O)NCC(c3ccc(OC)cc3)N3CCCCC3)c(C)c2c1 (stereo not drawn) | -9% | u
